Bioassay records (PubChem)
HCMV NEC inh: inhibitors of HCMV UL50-UL53 interaction, biochemical, HTRF; HCMV UL50-UL53 nuclear egress complex (human cytomegalovirus); normalized percent inhibition; inhibition, % (concentration not given with the values); 190,000 tested, 0.15% active; AID 1918969, 2023;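 active = both replicates at 50% or more, plus weaker picks with an unusually low signal ratio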;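 note: stock transfer was 100 nL into about 20 µL; 0% = negative control wells and 100% = wells with untagged competitor protein; inactives centre near -12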
Sa growth inh: S. aureus growth inhibition at 42 and 30 °C, primary screen, LtaS inhibitor project, RN4220, two temperatures; OD600, 20 h, 42 °C; hits give low values; relative growth, % (concentration not given with the values); 170,000 tested, 0.53% active;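 active = growth at 42 °C up to 50% and 20 or more points under that at 30 °C, or under 10% at both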;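 note: 300 nL library stock went into each well; scaled to the means of positive and negative controls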
GIV Gai3 FP: inhibitors of GIV peptide binding to Galpha-i3, primary screen, biochemical, fluorescence polarization, FITC-GIV GBA peptide, rat Galphai3; Guanine nucleotide-binding protein G(i) subunit alpha-3 (Rattus norvegicus), P08753; 90 min; hits give low values; scaled: aluminum fluoride 0%, vehicle 100%; AID 1224905, 2016; percent of control (FP), % (test concentration not listed); 210,000 tested, 0.42% active;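 active = replicate mean at 85% of control or lower, very high polarization wells dropped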;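 note: wells of about 15 µL received 100 nL stock; the first replicate is given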
Target sequence (P08753 whole entry, looked up): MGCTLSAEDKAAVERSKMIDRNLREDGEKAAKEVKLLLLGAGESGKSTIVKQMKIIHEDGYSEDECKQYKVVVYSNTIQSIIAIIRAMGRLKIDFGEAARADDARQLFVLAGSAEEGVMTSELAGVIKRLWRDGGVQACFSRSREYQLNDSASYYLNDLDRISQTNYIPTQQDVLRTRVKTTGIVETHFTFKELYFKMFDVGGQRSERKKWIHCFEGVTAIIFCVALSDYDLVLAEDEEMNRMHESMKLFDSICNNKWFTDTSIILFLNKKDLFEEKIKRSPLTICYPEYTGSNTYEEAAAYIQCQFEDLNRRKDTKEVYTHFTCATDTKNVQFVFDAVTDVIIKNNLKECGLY
Sa growth inh second temp: further read-out of Sa growth inh, marked with its call; relative growth, %; measured here: growth at 30 °C;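 optical density after 20 h as mean of two plates; 100% = untreated growth and lower means inhibition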
* = called active by the depositor; . = not tested or not shown.

1) Nc1c(Nc2ccc(C(=O)O)cc2)c2ccccc2oc1=O
2) CC(NCC(=O)Nc1ccccc1C(=O)NC1CC1)c1ccc(F)cc1 (stereo not given)
3) COc1cc(C(=O)O)cc2c1OCCO2
4) O=C(COC(=O)c1cc(-c2ccccc2)nn1-c1ccccc1)Nc1cccc(F)c1
5) CCCOC(=O)C1C2C=CC3(CN(CCc4ccccc4)C(=O)C13)O2 (stereo not given)
6) O=C1C=CC(=O)N1c1ccc2c(c1)OCO2

entry no. | 1 | 2 | 3 | 4 | 5 | 6
HCMV NEC inh | -26 | -6 | -11 | -4 | -4 | -8
Sa growth inh | 90 | 93 | 98 | 97 | 91 | 75
Sa growth inh second temp | 91 | 94 | 90 | 98 | 85 | 70
GIV Gai3 FP | 103 | . | . | . | 99 | 102

A draw from above in order of number of heavy atoms, smallest number first.
3) COc1cc(C(=O)O)cc2c1OCCO2
6) O=C1C=CC(=O)N1c1ccc2c(c1)OCO2
2) CC(NCC(=O)Nc1ccccc1C(=O)NC1CC1)c1ccc(F)cc1 (stereo not given)

entry no. | 3 | 6 | 2
HCMV NEC inh | -11 | -8 | -6
Sa growth inh | 98 | 75 | 93
Sa growth inh second temp | 90 | 70 | 94
GIV Gai3 FP | . | 102 | .

Later entries
7) COc1ccc(/C=C/C(=O)N2CCNC(=O)C2)c(OC)c1
8) Cc1ccc(Cl)cc1N1CCN(C(=O)c2cnc3sc(C)c(C)n3c2=O)CC1
9) O=C(NC1(C(F)(F)F)N=C(c2ccccc2)N(C2CCCCC2)C1=O)c1ccccc1F (stereo not given)
10) C1Cc2nn3c(c2C1)n1nc2c(c1n1nc4c(c31)CCC4)CCC2
11) O=c1[nH]nc(-c2ccccc2)c2c1-n1nnnc1NC2c1ccccc1 (stereo not given)
12) Cc1ccc(S(=O)(=O)c2ccc(C(=O)NCc3ccc4c(c3)OCO4)cn2)cc1C

entry no. | 7 | 8 | 9 | 10 | 11 | 12
HCMV NEC inh | -80 | -30 | 14 | 7 | -20 | -26
Sa growth inh | 96 | . | 84 | 111 | 110 | .
Sa growth inh second temp | 91 | . | 80 | 83 | 86 | .
GIV Gai3 FP | . | 107 | 96 | 108 | 100 | 99

13) Cc1ccc2nc(SCC(=O)O)cc(C)c2c1
14) CCOC(=O)CSc1nc2sc3c(c2c(=O)[nH]1)CCC(C(C)(C)C)C3 (stereo not given)
15) O=C(O)C1CCCCC1C(=O)N1CCCc2ccccc21 (stereo not given)
16) c1cncc(-c2nn3c(-c4ccc5ccccc5n4)nnc3s2)c1
17) Cc1nc2nc(C)c(NC(=O)Nc3ccc4c(c3)OCCO4)c(=O)n2[nH]1
18) Cc1cc(CNCc2nnc3ccccn23)c(C)n1-c1ccnn1C(C)C

entry no. | 13 | 14 | 15 | 16 | 17 | 18
HCMV NEC inh | -10 | -7 | -5 | -100 | 10 | -5
Sa growth inh | 84 | . | 104 | . | . | 86
Sa growth inh second temp | 71 | . | 91 | . | . | 88
GIV Gai3 FP | 103 | 111 | . | 113 | 97 | .

19) COc1ccc(Cl)cc1S(=O)(=O)N1CCN(C(=O)c2ccco2)CC1
20) O=C(NCC1CCCO1)c1ccccc1NC(=O)C1CC1 (stereo not given)
21) O=C(COC(=O)CCc1c[nH]c2ccccc12)Nc1cc2[nH]c(=O)[nH]c2cc1Br
22) Cc1ccc(CNC(=O)c2cc(-c3ccccc3)n[nH]2)cc1
23) COc1cccc(CNS(=O)(=O)c2ccc(-c3cc(C(F)(F)F)on3)s2)c1
24) COc1ccc(S(=O)(=O)NCC(c2ccc(N(C)C)cc2)N2CCCC2)cc1 (stereo not given)

entry no. | 19 | 20 | 21 | 22 | 23 | 24
HCMV NEC inh | -16 | -19 | -7 | 13 | . | .
Sa growth inh | 100 | 90 | 97 | 97 | 101 | 94
Sa growth inh second temp | 89 | 84 | 93 | 104 | 77 | 87
GIV Gai3 FP | 106 | 102 | . | 100 | 106 | 95

25) CCCCOc1ccc(C(=O)Oc2cc(C(=O)OC)nn2C)cc1
26) COc1cccc(NC(=S)Nc2ccccc2)c1
27) C=CCc1ccc(OCc2ccc(C(=O)Nc3ccc(NC(C)=O)cc3)o2)c(OC)c1
28) COc1ccc(-c2cc(C)no2)cc1S(=O)(=O)NCc1cccs1
29) CC1=C(C(=O)Nc2ccc(C)cn2)C(c2cccc(Oc3ccccc3)c2)C2=C(CCCC2=O)N1 (stereo not given)
30) O=C(CC1CC2CCC1C2)N(Cc1nnc(-c2ccccc2Cl)o1)C1CC1 (stereo not given)

entry no. | 25 | 26 | 27 | 28 | 29 | 30
HCMV NEC inh | -10 | -14 | 3 | . | -3 | 6
Sa growth inh | 100 | 117 | 110 | 112 | . | 77
Sa growth inh second temp | 109 | 75 | 93 | 87 | . | 86
GIV Gai3 FP | 102 | . | 109 | 106 | 104 | .

31) O=C(c1cc(-c2nnc(-c3ccc(Cl)cc3)o2)n(C2CC2)c1)c1ccccc1O
32) O=C(NCCc1ccc(Cl)cc1)c1cc2ccccc2oc1=O
33) COc1ccc(OC)c2sc(N3CCN(C(=O)c4ccc5c(c4)CCCC5)CC3)nc12
34) CCCCNc1nc2c(c(=O)n(Cc3ccc(Cl)cc3)c(=O)n2C)n1C
35) COCCCNC(=O)CSc1nc(-c2cccc(F)c2)[nH]c1-c1ccccc1
36) O=S1(=O)c2ccccc2NC(c2ccccc2Cl)N1Cc1ccccc1 (stereo not given)

entry no. | 31 | 32 | 33 | 34 | 35 | 36
HCMV NEC inh | -26 | . | . | -7 | 8 | -10
Sa growth inh | 74 | 89 | 80 | 114 | 97 | .
Sa growth inh second temp | 88 | 87 | 58 | 86 | 87 | .
GIV Gai3 FP | . | 101 | 95 | 101 | 100 | 98

37) C/C(Nc1ccc(C)cc1)=C1/CCOC1=O
38) O=C(O)CCC1CC(=O)Nc2ccccc21 (stereo not given)
39) Cc1cc(Cl)ccc1OCC(=O)Nc1onc2c1CC(C)CC2 (stereo not given)
40) CS(=O)(=N/C=C(\C#N)C(=O)c1ccco1)c1ccc(Cl)cc1 (stereo not given)
41) COc1cccc(N2CCN(C(=O)c3cc(-c4ccncc4)n(-c4ccc(F)cc4)n3)CC2)c1
42) CCN1CCN(C2=NCCN2S(=O)(=O)CC)CC1

entry no. | 37 | 38 | 39 | 40 | 41 | 42
HCMV NEC inh | 40 | -6 | -24 | -56 | -9 | -28
Sa growth inh | 119 | 113 | . | 95 | . | .
Sa growth inh second temp | 95 | 91 | . | 91 | . | .
GIV Gai3 FP | 100 | 103 | 102 | 169 | 107 | 104

43) CN(C)CCNc1ccc(-c2nc(-c3ccccc3)no2)nn1
44) Cc1ccc(CS(=O)(=O)Cc2ccc(C(=O)NC3CCCC3)o2)cc1
45) Cc1cc(C(=O)N2CCCC2c2ccc(Cl)cc2)no1 (stereo not given)
46) COc1ccc(C2C/C(=N/O)C(C)C(c3ccc(OC)cc3)N2)cc1 (stereo not given)
47) CCc1ccc(NC(=O)C2CCN(S(=O)(=O)c3cccc4nsnc34)CC2)cc1
48) Cc1cc(-c2ccc(S(=O)(=O)N(C)C3CCCCC3)s2)on1

entry no. | 43 | 44 | 45 | 46 | 47 | 48
HCMV NEC inh | -34 | 2 | -32 | -4 | -48 | -48
Sa growth inh | . | 95 | . | 109 | . | 82
Sa growth inh second temp | . | 84 | . | 95 | . | 92
GIV Gai3 FP | 96 | 101 | 105 | 97 | 102 | 103

49) O=C(COC(=O)C1=COCCO1)Nc1ccccc1
50) CSc1ccc(CCNC(=O)c2ccc(CS(=O)c3cccc(C)c3)o2)cc1 (stereo not given)
51) O=C(CCC1N=C2c3ccccc3N=C(SCc3ccc(F)cc3)N2C1=O)NCc1cccs1 (stereo not given)
52) CC1(C(=O)NCc2ccc(F)cc2F)CCN(C(=O)c2ccc(Br)cc2)CC1
53) O=C(CCOc1ccccc1)OCCN1CCCC1=O
54) CCc1ccc(OCC(=O)N(C)C2CCS(=O)(=O)C2)cc1 (stereo not given)

entry no. | 49 | 50 | 51 | 52 | 53 | 54
HCMV NEC inh | -2 | -26 | . | -12 | -33 | 12
Sa growth inh | 99 | 89 | 94 | . | 123 | 110
Sa growth inh second temp | 92 | 63 | 97 | . | 84 | 97
GIV Gai3 FP | . | 107 | 105 | 111 | . | .

Values in list order from above.
Sa growth inh second temp, nos. 49 to 54: 92, 63, 97, ., 84, 97

(more compounds)
55) C=CCN1C(=O)C(C(C)CC)NC1=S (stereo not given)
56) CCCn1c(=O)c2sccc2n2c(SCc3ccc(N4CCCC4=O)cc3)nnc12
57) CCN(CC)C(=O)C1CCN(S(=O)(=O)c2ccc3c(c2)CCCN3C(C)=O)CC1
58) Cc1ccc(S(=O)(=O)N2CCC[C@H]2C(=O)Nc2ccc(-c3nnc4n3CCCCC4)cc2)cc1
59) O=C(NC(=O)c1c(Cl)cccc1Cl)Oc1ccc(C(F)(F)F)cc1
60) O=C(Cc1cccs1)Nc1ccc2c(c1)C(=O)OC2

entry no. | 55 | 56 | 57 | 58 | 59 | 60
HCMV NEC inh | . | 8 | . | -33 | -21 | -16
Sa growth inh | 92 | . | 111 | 79 | 84 | 87
Sa growth inh second temp | 82 | . | 97 | 95 | 90 | 77
GIV Gai3 FP | 104 | 105 | 105 | . | 103 | 102

61) COc1ccc(-c2nc3ccccc3s2)cc1NC(=O)Cc1ccc(Cl)cc1
62) CC1=NN(c2cccc(SC(F)F)c2)C(=O)C1
63) COc1cc(NC(=O)CCc2c(C)nn(-c3ccc(N4CCCCC4)nn3)c2C)cc(OC)c1OC
64) CC1CCCCC1NC(=O)CN1C(=O)c2cccc(N)c2C1=O (stereo not given)
65) COc1ccc(C(=O)/C(Br)=C\C(=O)O)cc1
66) CC(=O)n1cc(Nc2ccccc2O)c2ccccc21

entry no. | 61 | 62 | 63 | 64 | 65 | 66
HCMV NEC inh | -3 | 5 | . | -3 | -41 | -26
Sa growth inh | . | 57 | 92 | 113 | 90 | 79
Sa growth inh second temp | . | 54 | 86 | 101 | 84 | 32
GIV Gai3 FP | 105 | 98 | 97 | . | 113 | 106

67) Cc1ccc(-c2nc3cc(C(C)C)ccc3o2)cc1NC(=O)c1cc([N+](=O)[O-])ccc1N1CCOCC1
68) CCCSc1ncnc2sc3c(c12)CCCC3
69) Cc1ccc2nc(SCc3nc4ccccc4c(=O)n3CC#N)[nH]c2c1
70) COc1cc2[nH]c(=O)n(Cc3ccc(C(=O)Nc4ccc(C)c(C)c4)cc3)c(=O)c2cc1OC
71) CCSc1ncc2c(=O)n(CC(=O)Nc3ccc(OC)c(OC)c3)cnc2n1
72) CC(C)(C)c1cc(/C=C2\SC(=S)NC2=O)cc(C(C)(C)C)c1O

entry no. | 67 | 68 | 69 | 70 | 71 | 72
HCMV NEC inh | 3 | 2 | -16 | 11 | 3 | .
Sa growth inh | 110 | 99 | 102 | . | . | 57
Sa growth inh second temp | 96 | 91 | 98 | . | . | 38
GIV Gai3 FP | 110 | . | . | 105 | 107 | 105

Copied from above: compounds 65–69
65) COc1ccc(C(=O)/C(Br)=C\C(=O)O)cc1
66) CC(=O)n1cc(Nc2ccccc2O)c2ccccc21
67) Cc1ccc(-c2nc3cc(C(C)C)ccc3o2)cc1NC(=O)c1cc([N+](=O)[O-])ccc1N1CCOCC1
68) CCCSc1ncnc2sc3c(c12)CCCC3
69) Cc1ccc2nc(SCc3nc4ccccc4c(=O)n3CC#N)[nH]c2c1

entry no. | 65 | 66 | 67 | 68 | 69
HCMV NEC inh | -41 | -26 | 3 | 2 | -16
Sa growth inh | 90 | 79 | 110 | 99 | 102
Sa growth inh second temp | 84 | 32 | 96 | 91 | 98
GIV Gai3 FP | 113 | 106 | 110 | . | .

(list continues)
73) Cc1cc(C(=O)O)c(C)n1-c1ccccc1
74) Cc1ccc(CN2C(=O)c3ccccc3CC2(C)C(=O)NC2CCCCC2)cc1 (stereo not given)
75) COc1cc(C(=O)Nc2c[nH]c(=O)[nH]c2=O)ccc1OC(C)=O
76) COc1ccc(S(=O)(=O)N2CCN(CCO)CC2)cc1
77) O=C1c2ccccc2C(=O)N1Cc1nc2ccccc2c(=O)n1CCN1CCOCC1
78) CCC(=O)Nc1ccc(C)cc1-c1nc2ccccc2n(C(C)C(=O)Nc2ccccc2CC)c1=O (stereo not given)

entry no. | 73 | 74 | 75 | 76 | 77 | 78
HCMV NEC inh | -13 | -24 | -8 | -25 | 5 | 10
Sa growth inh | 96 | 104 | 93 | 92 | 106 | 111
Sa growth inh second temp | 93 | 90 | 85 | 88 | 102 | 95
GIV Gai3 FP | . | 103 | 98 | 104 | 111 | 99

79) CC(=O)NC(=O)c1cc2cc(Br)ccc2oc1=Nc1cccc(C#N)c1
80) O=C(Nc1ccccc1)Nc1c[nH]c2ccccc12
81) Cc1ccc(OC(C)C(=O)N(Cc2ccccc2)C2CCS(=O)(=O)C2)cc1C (stereo not given)
82) CC(=O)N1N=C(c2ccccc2)OC12CCCC2
83) Cc1cc(C)nc(SC2=CS(=O)(=O)c3ccccc32)n1
84) Cn1c(=O)cc(SCC(=O)N2CCN(c3ccccc3F)CC2)c2cc(Cl)ccc21
85) Cc1ccc(-n2nc3c(c2NC(=O)c2ccc(S(=O)(=O)N4CCCC4)cc2)CSC3)c(C)c1

entry no. | 79 | 80 | 81 | 82 | 83 | 84 | 85
HCMV NEC inh | -12 | -32 | 1 | 2 | -11 | -10 | 21
Sa growth inh | . | 89 | . | 105 | 91 | 111 | .
Sa growth inh second temp | . | 75 | . | 92 | 100 | 90 | .
GIV Gai3 FP | 101 | 104 | 106 | 98 | 103 | 103 | 102
